Biofilm kill mix – mixtures killing C. albicans biofilm; C. albicans biofilm persisters + clotrimazole, fluorescence viability; primary screen in compound mixtures of four per well; inhibition, % at 7.6 µM; 120,000 compounds, 0.02% hits; AID 1242;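 active = inhibition above 30.3% in the primary screen of four-compound pools, then above 30% when the compound was retested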;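 note: compounds exposed to preformed 24 h biofilms for 48 h; the number belongs to the whole pool; some results filed as inactive read as strong as hits; inactives centre near 12; 0% = biofilm with clotrimazole alone and 100% = kill control; retested singly at about 60 µM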
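Assay system: C. albicans biofilms / Medium: RPMI/MOPS medium, pH 7.0 / Schedule: biofilm formation 24 h, compound exposure 48 h, 37 °C / Measured by: Alamar Blue fluorescence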
* marks the source's active call; other numbers are inactive results.

> CC(=O)Nc1ccc(S(=O)(=O)Nc2ccc(S(=O)(=O)N3CCCC3)cc2)cc1
  Biofilm kill mix: 9
> COc1ccc(NC(=O)COC(=O)Cc2c(F)cccc2Cl)cc1OC
  Biofilm kill mix: 12
> Cc1ccc(Cn2ncc(Cl)c(Cl)c2=O)cc1
  Biofilm kill mix: 12
> O=C(COc1cccc(F)c1)Oc1ccc(C(=O)c2ccccc2)cc1
  Biofilm kill mix: 10
> O=[N+]([O-])c1ccc(SCc2c(F)cccc2Cl)nc1
  Biofilm kill mix: 12
> COc1ccc(NC(=O)c2sc(N)nc2-c2ccccc2)cc1
  Biofilm kill mix: 5
> O=C(O)c1csc(-c2cccc(Cl)c2)n1
  Biofilm kill mix: 16
> O=C1N=C(N2CCOCC2)S/C1=C/c1cc2c(cc1[N+](=O)[O-])OCO2
  Biofilm kill mix: 25
> O=C(O)c1ccc(-c2nc(-c3cccc(C(F)(F)F)c3)cs2)cc1
  Biofilm kill mix: 15
> CCCc1cc(=O)[nH]c(SCC(=O)NN(c2ccccc2)c2ccccc2)n1
  Biofilm kill mix: -3
> COc1ccc(-c2ccc(CCC(=O)O)n2NC(=O)c2ccc(C(C)(C)C)cc2)cc1
  Biofilm kill mix: 7
> CN(C)c1ncnc(N(C)C)c1[N+](=O)[O-]
  Biofilm kill mix: 20
> COc1ccc(C2=NN3C(C2)c2ccccc2OC3c2cccs2)cc1 (stereo not given)
  Biofilm kill mix: 27
> Cc1ccc(S(=O)(=O)Nc2cc(C(F)(F)F)ccc2N2CCOCC2)cc1C
  Biofilm kill mix: 6
> CC1Cc2ccccc2N1C(=O)COC(=O)CCc1nc2ccccc2c(=O)[nH]1 (stereo not given)
  Biofilm kill mix: 11

> CC(C)CCN(C(=O)COc1ccc(C#N)cc1)c1c(N)n(Cc2ccccc2)c(=O)[nH]c1=O
  Biofilm kill mix: 6
> COc1ccc(C2C3(C#N)C(N)=NC(OC)(OC)C23C#N)cc1 (stereo not given)
  Biofilm kill mix: 6
> CCN(CC)CCCOc1ccc(Cl)c(Cl)c1
  Biofilm kill mix: 15
> c1ccc2c(-c3csc(-c4ccncc4)n3)c[nH]c2c1
  Biofilm kill mix: 11
> Cc1onc(-c2ccccc2)c1C(=O)NC(=S)NNC(=O)c1ccccc1O
  Biofilm kill mix: 19
> Cc1ccc(/C=N/NC(=O)CN2CCN(Cc3ccccc3Cl)CC2)o1
  Biofilm kill mix: 24
> Nc1cccc(-c2ccc(CO)o2)c1
  Biofilm kill mix: 25
> COc1ccc(CCC(=O)O)c(O)c1
  Biofilm kill mix: 14
> CC(C)(C)OC(=O)N1CCC[C@H]1C(=O)N/N=C/c1ccc2nccnc2c1
  Biofilm kill mix: 10
> CC1CCCN(S(=O)(=O)c2ccc3c(c2)n(C)c(=O)c(=O)n3C)C1 (stereo not given)
  Biofilm kill mix: 1
> CN1CCN(c2ccc(C(=O)c3cn(-c4ccc(F)c(Cl)c4)nn3)cc2)CC1
  Biofilm kill mix: 10
> COc1ccccc1N1CCN(C(=O)c2ccc3[nH]c4c(c3c2)CC(C)CC4)CC1 (stereo not given)
  Biofilm kill mix: 13
> Cc1ccc(-n2ncc3c(=O)[nH]c(SCC(=O)N4CCCC4)nc32)cc1C
  Biofilm kill mix: -3
> O=c1c(Cc2ccc(Cl)cc2)c(O)ccn1Cc1cccs1
  Biofilm kill mix: 16
> COC(=O)Cc1csc(Nc2ccc(Cl)cc2)n1
  Biofilm kill mix: 0

> Cc1ccc(C2=NN(CCC(=O)NCc3ccc4c(c3)OCO4)C(=O)CC2)cc1
  Biofilm kill mix: 14
> C#CCOCCOCCOCCNc1nc(N2CCN(C(=O)[C@H]([C@@H](C)CC)n3cc([C@@H](N)CC(C)C)nn3)CC2)nc(N2CCN(C(=O)[C@H](Cc3cc4ccccc4[nH]3)n3cc([C@@H](N)CC(C)C)nn3)CC2)n1
  Biofilm kill mix: 19
> CC(=O)c1cccc(NC(=S)N2CCC(Cc3ccccc3)CC2)c1
  Biofilm kill mix: 17
> COC(=O)c1c(NC(=O)CCC(=O)O)sc(Cc2ccccc2)c1C
  Biofilm kill mix: 24
> O=[N+]([O-])c1ccccc1/C=N/Nc1nc(N2CCCC2)nc(N2CCCC2)n1
  Biofilm kill mix: 0
> COc1ccccc1C(=O)NN1C(=O)/C(=C/c2cccn2C)SC1=S
  Biofilm kill mix: 14
> CC(C)c1c(O)c2c(n(-c3ccccc3)c1=O)CCCC2
  Biofilm kill mix: 16
> Cc1cc(C)cc(OCC(=O)Nc2ccc3c(c2)OCO3)c1
  Biofilm kill mix: 18
> CCCCCCCCNc1nc(Cl)nc(NCc2ccco2)n1
  Biofilm kill mix: 5
> O=C(CSc1cccc2cccnc12)N/N=C/c1ccncc1
  Biofilm kill mix: 15
> COc1cccc(CC(=O)Nc2nc(-c3cc(OC)ccc3OC)cs2)c1
  Biofilm kill mix: 8
> Cc1cc(NC(=O)CO/N=C/c2ccc3c(c2)OCO3)ccc1Br
  Biofilm kill mix: 8
> CCCC(c1nnnn1Cc1ccc(F)cc1)N1CCN(C)CC1 (stereo not given)
  Biofilm kill mix: 17
> N#Cc1ccccc1OCC(=O)NCC1(N2CCCCC2)CCCCC1
  Biofilm kill mix: 15
> COc1ccc(OC)c(-c2nc3cc4ccccc4cc3nc2-c2ccccc2)c1
  Biofilm kill mix: 7

> Cc1ccc(-n2c(SCC(=O)N/N=C/C=C/c3ccccc3[N+](=O)[O-])nc3ccccc3c2=O)cc1
  Biofilm kill mix: 2
> O=C(OCn1nnc2ccccc2c1=O)c1cc(-c2ccccc2)nc2ccccc12
  Biofilm kill mix: 11
> CC(NC(=O)COC(=O)Cn1cnc2ccccc2c1=O)C1CC2CCC1C2 (stereo not given)
  Biofilm kill mix: 13
> Cn1nc(C(=O)N2CCN(C(c3ccccc3)c3ccccc3)CC2)c2ccccc2c1=O
  Biofilm kill mix: 10
> O=C(COc1ccccc1)NCC(=O)N/N=C/c1ccc(O)cc1O
  Biofilm kill mix: 4
> COc1ccccc1/C=N/Nc1cc(C)nc(N2CCOCC2)n1
  Biofilm kill mix: 4
> Cc1ccc(Cn2cc(S(=O)(=O)c3ccc(Cl)cc3)c(=O)c3cc(F)ccc32)cc1
  Biofilm kill mix: 2
> CC1CC2OC(=O)C3(C)CCCC(C)(C23)C1(O)CCc1ccoc1 (stereo not given)
  Biofilm kill mix: 14
> COc1ccccc1OCCn1cc(/C=N/NC(=O)c2ccncc2)c2ccccc21
  Biofilm kill mix: 27
> Cn1nc(C(F)(F)F)c(-c2ccc(Br)cc2)c1NC(=O)c1ccco1
  Biofilm kill mix: 10
> COc1cc(/C=N/N2C(C)CCCC2C)cc(Br)c1O (stereo not given)
  Biofilm kill mix: 15
> COc1cc(/C=N/NC(=O)CCC(=O)NC2CCCCC2)ccc1C
  Biofilm kill mix: 7
> CCOc1ccsc1C(=O)OC
  Biofilm kill mix: 35
> COc1ccc(C2CC(c3ccc(F)cc3)n3nc(NS(C)(=O)=O)nc3N2)cc1 (stereo not given)
  Biofilm kill mix: 14
> CSc1nn(-c2ccc(C(=O)OC(C(=O)NC(N)=O)C(C)C)cc2)c(=S)s1 (stereo not given)
  Biofilm kill mix: 9

> CCN1CCN(CCCN(Cc2ccco2)C(=S)Nc2cccc(Cl)c2C)CC1
  Biofilm kill mix: -5
> CCN(Cc1ccccc1)C(=O)/C=C/c1ccccc1[N+](=O)[O-]
  Biofilm kill mix: -18
> CC(=O)OCCn1c2nc(=O)[nH]c(=O)c-2nc2cc(C)c(C)cc21
  Biofilm kill mix: 22
> Cc1ccc(NC(=O)Cc2ccc([N+](=O)[O-])cc2)c(Br)c1
  Biofilm kill mix: 9
> CC(=O)C1=C(c2ccccc2)NC(=O)NC1c1ccc(O)c(O)c1 (stereo not given)
  Biofilm kill mix: 16
> CN(C)S(=O)(=O)c1ccc(C(=O)OCC(=O)Nc2ccc(OC(F)F)cc2)cc1
  Biofilm kill mix: 10
> O=C(CSCc1ccccc1)Nc1ccccc1C(=O)Nc1ccc(C(=O)O)cc1
  Biofilm kill mix: 22
> CN1CCN(S(=O)(=O)c2cccc(C(=O)NCc3ccc(Cl)cc3)c2)CC1
  Biofilm kill mix: 9
> COc1ccc(N(C(=O)CNC(=O)c2ccco2)C(C(=O)NC2CCCC2)c2ccncc2)cc1 (stereo not given)
  Biofilm kill mix: 15
> COc1ccc(NC(=O)/C(=C/c2cccs2)NC(=O)c2ccco2)cc1
  Biofilm kill mix: 23
> COCC(C)NC(=O)CSc1nnc(-c2cccc(S(=O)(=O)N3CCCCC3)c2)o1 (stereo not given)
  Biofilm kill mix: 9
> COc1cccc(-c2nnc(-c3ccc(C)o3)o2)c1
  Biofilm kill mix: 12
> CCOCC(=O)Nc1cc(S(=O)(=O)N2CCOCC2)ccc1N1CCCCC1
  Biofilm kill mix: 16
> O=[N+]([O-])c1ccc(N2CCCCC2)cc1NCCOc1ccccc1
  Biofilm kill mix: 9
> CC(C)CN(CC(C)C)C(=O)C12CCC(C)(C(=O)O1)C2(C)C (stereo not given)
  Biofilm kill mix: 12
> CC(C)NC(=O)Nc1n[nH]c(Nc2ccc(Cl)cc2)n1
  Biofilm kill mix: 13
> COc1cccc(N2C(=O)CC(N3CCc4ccccc4C3)C2=O)c1 (stereo not given)
  Biofilm kill mix: 18
> Cc1ccc(NC(=O)CN(C)C(=O)c2nn(C)c(=O)c3ccccc23)cc1
  Biofilm kill mix: 11

Filtered by structure: the compounds so far with a Cl atom.
> COc1ccc(NC(=O)COC(=O)Cc2c(F)cccc2Cl)cc1OC
  Biofilm kill mix: 12
> Cc1ccc(Cn2ncc(Cl)c(Cl)c2=O)cc1
  Biofilm kill mix: 12
> O=[N+]([O-])c1ccc(SCc2c(F)cccc2Cl)nc1
  Biofilm kill mix: 12
> O=C(O)c1csc(-c2cccc(Cl)c2)n1
  Biofilm kill mix: 16
> CCN(CC)CCCOc1ccc(Cl)c(Cl)c1
  Biofilm kill mix: 15
> Cc1ccc(/C=N/NC(=O)CN2CCN(Cc3ccccc3Cl)CC2)o1
  Biofilm kill mix: 24
> CN1CCN(c2ccc(C(=O)c3cn(-c4ccc(F)c(Cl)c4)nn3)cc2)CC1
  Biofilm kill mix: 10
> O=c1c(Cc2ccc(Cl)cc2)c(O)ccn1Cc1cccs1
  Biofilm kill mix: 16
> COC(=O)Cc1csc(Nc2ccc(Cl)cc2)n1
  Biofilm kill mix: 0
> CCCCCCCCNc1nc(Cl)nc(NCc2ccco2)n1
  Biofilm kill mix: 5
> Cc1ccc(Cn2cc(S(=O)(=O)c3ccc(Cl)cc3)c(=O)c3cc(F)ccc32)cc1
  Biofilm kill mix: 2
> CCN1CCN(CCCN(Cc2ccco2)C(=S)Nc2cccc(Cl)c2C)CC1
  Biofilm kill mix: -5
> CN1CCN(S(=O)(=O)c2cccc(C(=O)NCc3ccc(Cl)cc3)c2)CC1
  Biofilm kill mix: 9
> CC(C)NC(=O)Nc1n[nH]c(Nc2ccc(Cl)cc2)n1
  Biofilm kill mix: 13

Screening results from PubChem.

Some of the compounds tested. The share of hits here may be higher or lower than overall.
